NPYLR7 agonist: activates Aedes aegypti NPYLR7 receptor; HEK293T NPYLR7/Galpha15, GCaMP6s calcium fluorescence; activation, % at 10 µM; 270,000 tested, 0.15% active; AID 1259423; in the data active = activation above about 40%;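 also: 0% = vehicle and 100% = reference agonist at the receptor; some compounds past the cut are filed as inactive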
NPYLR7 agonist max-min: recorded beside NPYLR7 agonist, whose call it bears; activation, %; measured here: Max-Min RFU normalised activation; some inactives read as strong as hits;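 span of the calcium signal over five minutes; 0% = vehicle and 100% = native peptide agonist; compound fluorescence can raise it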
Starred values were filed as active, the others as inactive; & = joins results of further samples.

What do the screens show for `Cc1c(CN(C)Cc2ccc(C3CCCCO3)o2)cnn1C` (configuration not stated)?
NPYLR7 agonist: -4; NPYLR7 agonist max-min: -3

Results for Cn1c(O)c(N=NC(=O)c2ccc(C(C)(C)C)cc2)c2ccccc21 ?
NPYLR7 agonist: -1&2; NPYLR7 agonist max-min: -7&1

How did COCCCNC(=O)C(NC(=O)c1cccs1)C1CCN(C(=O)Nc2cccc(Cl)c2)CC1 (configuration not stated) do in these assays?
NPYLR7 agonist: -7; NPYLR7 agonist max-min: 2

How did Cc1nnc(SCCCNC(=O)CC2COCCN2)s1 (configuration not stated) do in these assays?
NPYLR7 agonist: -1; NPYLR7 agonist max-min: -2

Results for Cc1ccc(C(=O)NNC(=O)c2c(C)oc(C)c2C)cc1 ?
NPYLR7 agonist: 8; NPYLR7 agonist max-min: 3

What do the screens show for `COc1cccc(-c2nnc(SCc3nc(C(=O)NCc4cccc(C(F)(F)F)c4)cs3)n2-c2ccccc2)c1`?
NPYLR7 agonist: 1; NPYLR7 agonist max-min: 3

Results for CC(=O)N(C)c1ccc(NC(=O)CN2CCNC(=O)[C@@H]2Cc2ccccc2)cc1 ?
NPYLR7 agonist: -1; NPYLR7 agonist max-min: 3

Results for Cc1cc(C)nc(NC(=O)c2c[nH]c3c(C(F)(F)F)cccc3c2=O)n1 ?
NPYLR7 agonist: 3; NPYLR7 agonist max-min: 3

What do the screens show for `Cc1c(Cl)c(C(F)(F)F)nn1CC(=O)N1CCN(Cc2ccccc2)CC1`?
NPYLR7 agonist: 7; NPYLR7 agonist max-min: 6

What do the screens show for `N#CC1=C(NC(=O)CCl)c2ccccc2CC12CCCCC2`?
NPYLR7 agonist: 1; NPYLR7 agonist max-min: -4

How did O=S(=O)(Cc1ccccc1)N1CCN(c2nc3ccccc3nc2-c2ccccc2)CC1 do in these assays?
NPYLR7 agonist: 6; NPYLR7 agonist max-min: 2

How did CCOC(=O)c1cc([C@@H](C)CCC=C(C)C)sc1NC(=O)c1c(F)cccc1F do in these assays?
NPYLR7 agonist: 5; NPYLR7 agonist max-min: 1

Results for Cc1cc(COc2ccccc2)oc1C(=O)N1CCOC(C(F)(F)F)C1 (configuration not stated) ?
NPYLR7 agonist: 10; NPYLR7 agonist max-min: 7

Results for Cc1ccn(CC(=O)N2CCN3CCNC(=O)C3C2)n1 (configuration not stated) ?
NPYLR7 agonist: 4; NPYLR7 agonist max-min: 3

Results for CC(=O)c1ccc(N=Cc2nc(-c3ccccc3Br)oc2O)cc1 ?
NPYLR7 agonist: -1; NPYLR7 agonist max-min: -7

Results for Cc1ccc(C(NC(=O)c2cnn3c2CCCC3)c2ccncc2)cc1 (configuration not stated) ?
NPYLR7 agonist: 0; NPYLR7 agonist max-min: 0

How did CC(C)(C)c1ccc(S(=O)(=O)NC2CCCN(CC(N)=O)C2)cc1 (configuration not stated) do in these assays?
NPYLR7 agonist: -4; NPYLR7 agonist max-min: -8

How did N#CC(=C(O)CON=Cc1ccccc1Cl)c1nc2ccccc2[nH]1 do in these assays?
NPYLR7 agonist: -6; NPYLR7 agonist max-min: -7

How did C=CC(=O)NCC1Cc2cc(C(=O)OC)ccc2O1 (configuration not stated) do in these assays?
NPYLR7 agonist: -8; NPYLR7 agonist max-min: -1

What do the screens show for `COCCNc1cc(-c2ccc3c(c2)CNCC3)c2cc[nH]c2n1`?
NPYLR7 agonist: -13; NPYLR7 agonist max-min: -12

The closing 3 records of the section before lead into the next.
How did N#CC(=C(O)CON=Cc1ccccc1Cl)c1nc2ccccc2[nH]1 do in these assays?
NPYLR7 agonist: -6; NPYLR7 agonist max-min: -7

How did C=CC(=O)NCC1Cc2cc(C(=O)OC)ccc2O1 (configuration not stated) do in these assays?
NPYLR7 agonist: -8; NPYLR7 agonist max-min: -1

What do the screens show for `COCCNc1cc(-c2ccc3c(c2)CNCC3)c2cc[nH]c2n1`?
NPYLR7 agonist: -13; NPYLR7 agonist max-min: -12

Results for O=C1C(Cl)=C(Nc2cc(Cl)cc(Cl)c2)C(=O)N1Cc1ccc(Cl)cc1 ?
NPYLR7 agonist: -2; NPYLR7 agonist max-min: -8

How did CSc1ccc(NC(=O)c2cn[nH]n2)cc1Cl do in these assays?
NPYLR7 agonist: 3; NPYLR7 agonist max-min: 2

What do the screens show for `CCN1C(=O)N(Cc2cccc(OC)c2)C(=O)C12CCN(Cc1ccc(N3CCCC3)cc1)CC2`?
NPYLR7 agonist: 3; NPYLR7 agonist max-min: -6

How did O=C(C1CNCCN1C(=O)Cn1cnc2ccsc2c1=O)N1CCCC1 (configuration not stated) do in these assays?
NPYLR7 agonist: -5; NPYLR7 agonist max-min: -7

How did Cc1ccsc1CN(C)CCOc1ccc(S(N)(=O)=O)cc1 do in these assays?
NPYLR7 agonist: 0; NPYLR7 agonist max-min: -1

Results for O=c1/c(=C/c2ccc([N+](=O)[O-])cc2)sc2nc3cc(Br)cnc3n12 ?
NPYLR7 agonist: -15; NPYLR7 agonist max-min: -21

What do the screens show for `CS(=O)(=O)N1C[C@H]2CNC[C@@]2(C(=O)NCc2ccc3c(c2)OCO3)C1`?
NPYLR7 agonist: 1; NPYLR7 agonist max-min: 0

Results for COc1ccccc1N=c1oc2cc(O)ccc2cc1C(N)=O ?
NPYLR7 agonist: 6; NPYLR7 agonist max-min: 4

Results for NC(=O)CSc1nnc(Nc2ccccc2C(F)(F)F)s1 ?
NPYLR7 agonist: -8; NPYLR7 agonist max-min: 15

What do the screens show for `COc1ccc(C(N=C(N)SC)c2ccccc2)cc1` (configuration not stated)?
NPYLR7 agonist: 5; NPYLR7 agonist max-min: 9

How did O=C(O)COc1ccc(C=Nc2ccc3c(c2)OCO3)cc1Cl do in these assays?
NPYLR7 agonist: -1; NPYLR7 agonist max-min: 0

What do the screens show for `CC1(Cc2ccccc2F)C(=O)Nc2ccc(-c3cccnc3)cc21` (configuration not stated)?
NPYLR7 agonist: 2; NPYLR7 agonist max-min: 1

What do the screens show for `COc1ccccc1CC(C)(C)NC(=O)c1cc(C)nn1C`?
NPYLR7 agonist: 6; NPYLR7 agonist max-min: 1

What do the screens show for `CC(C)C(=O)NNC(=O)c1ccc(F)cc1`?
NPYLR7 agonist: 15; NPYLR7 agonist max-min: 10

Results for COc1cccc(Cn2nccc2NC(=O)COc2cccc(C)c2)c1OC ?
NPYLR7 agonist: -2; NPYLR7 agonist max-min: -2

How did Oc1cc2c(cc1O)CN(C(=S)NCCc1ccc(Cl)cc1)CCC2 do in these assays?
NPYLR7 agonist: 2; NPYLR7 agonist max-min: -25

How did COc1ccc(S(=O)(=O)N2CCc3ccccc3C2)cc1N1CCN(C(=O)c2cc(F)cc(C(F)(F)F)c2)CC1 do in these assays?
NPYLR7 agonist: 21; NPYLR7 agonist max-min: 11

How did Cc1nc(SCC(=O)OCN2C(=O)c3ccccc3C2=O)n[nH]1 do in these assays?
NPYLR7 agonist: 3; NPYLR7 agonist max-min: 2

How did O=C(CSc1ncccn1)NC1CCCN(c2nc3ccccc3s2)C1 (configuration not stated) do in these assays?
NPYLR7 agonist: 4; NPYLR7 agonist max-min: -1

Results for O=C(C1CCC(=O)N(C2CCCCCC2)C1)N1CC=C(c2ccccc2)CC1 (configuration not stated) ?
NPYLR7 agonist: -8; NPYLR7 agonist max-min: -9

Results for CN(C)CC/C=C1\c2ccccc2Sc2ccc(Cl)cc21 ?
NPYLR7 agonist: -1&-1; NPYLR7 agonist max-min: -7&-4

How did CCNC(=O)N1CCc2nc(NCc3cccc(Oc4ccccc4)c3)ncc2C1 do in these assays?
NPYLR7 agonist: -3; NPYLR7 agonist max-min: -8

What do the screens show for `CCCc1ccc(C2=C(C)SC3=NS(=O)(=O)CCN32)cc1`?
NPYLR7 agonist: -1; NPYLR7 agonist max-min: -5

How did O=C(c1nc(-c2cnccn2)no1)N1CCCCCC1 do in these assays?
NPYLR7 agonist: 1; NPYLR7 agonist max-min: -1

What do the screens show for `O=C(CCN(Cc1ccco1)c1nc(-c2cccs2)nc2ccccc12)NC1CC1`?
NPYLR7 agonist: -2; NPYLR7 agonist max-min: 9

What do the screens show for `O=C(c1cc(F)ccc1C(F)(F)F)N1CC(=O)N2CCc3ccc(Cl)cc3C2C1` (configuration not stated)?
NPYLR7 agonist: -2; NPYLR7 agonist max-min: 11

What do the screens show for `O=C(Nc1cccc(C(=O)N2CCOc3ccccc32)c1)c1cccs1`?
NPYLR7 agonist: 14; NPYLR7 agonist max-min: 10

Results for COc1cccc(CNc2ncnc3sc(C(=O)NC4CCOC4)c(C)c23)c1 (configuration not stated) ?
NPYLR7 agonist: 9; NPYLR7 agonist max-min: 5

What do the screens show for `CC(=O)Nc1ccc(S(=O)(=O)NCCc2sc3nc(-c4ccc(F)cc4)nn3c2C)cc1`?
NPYLR7 agonist: 0; NPYLR7 agonist max-min: -2

How did CCN(CC)CCSc1nc(-c2ccccc2C)nc2c1c(=O)n(C)c(=O)n2C do in these assays?
NPYLR7 agonist: -4; NPYLR7 agonist max-min: -9

Results for Cc1cnc(-c2cc(NCc3ccccn3)nc3[nH]ccc23)nc1N(C)C ?
NPYLR7 agonist: 19; NPYLR7 agonist max-min: 11

Results for CC(C)C(=O)Nc1ccccc1C1SCC(=O)N1c1ccc(F)cc1 (configuration not stated) ?
NPYLR7 agonist: 5; NPYLR7 agonist max-min: 16

Results for CN1C(=O)[C@]2(C)[C@H](c3ccccc31)[C@@H](C(N)=O)CN2C(=O)CO ?
NPYLR7 agonist: 23; NPYLR7 agonist max-min: 33

What do the screens show for `O=C(O)COn1nnc2ccc(C(F)(F)F)cc21`?
NPYLR7 agonist: 13; NPYLR7 agonist max-min: 17

What do the screens show for `O=C1CC2(CCCC2)C(=O)N1CC(=O)N1CCc2ccccc21`?
NPYLR7 agonist: 15; NPYLR7 agonist max-min: 12

Results for CNC(=O)C1(NCC(=O)NC(C)c2ccc(C)c(C)c2)CCCC1 (configuration not stated) ?
NPYLR7 agonist: 6; NPYLR7 agonist max-min: 4

What do the screens show for `O=C(NCCOc1ccc(-c2ccco2)nn1)c1ccc(Br)o1`?
NPYLR7 agonist: -5; NPYLR7 agonist max-min: -5

How did O=c1c2c(nc3nc(-c4ccco4)[nH]n13)CCC2 do in these assays?
NPYLR7 agonist: 4; NPYLR7 agonist max-min: 2

What do the screens show for `CCn1c(CC2CCN(C(=O)c3onc4ccccc34)CC2)nn(C)c1=O`?
NPYLR7 agonist: 2; NPYLR7 agonist max-min: 1

What do the screens show for `CCOC(=O)c1nn(-c2ccccc2F)c(=O)c2c(NC(=O)c3cccs3)scc12`?
NPYLR7 agonist: 8; NPYLR7 agonist max-min: 6

Quoted at random: 2 entries already listed
What do the screens show for `CCn1c(CC2CCN(C(=O)c3onc4ccccc34)CC2)nn(C)c1=O`?
NPYLR7 agonist: 2; NPYLR7 agonist max-min: 1

What do the screens show for `O=C(Nc1cccc(C(=O)N2CCOc3ccccc32)c1)c1cccs1`?
NPYLR7 agonist: 14; NPYLR7 agonist max-min: 10

Next part
Results for CC(C)OCC(O)CN(Cc1ccc(F)cc1F)CC1CC(c2ccc(F)cc2)=NO1 (configuration not stated) ?
NPYLR7 agonist: -2; NPYLR7 agonist max-min: 0

Results for c1cncc(OC2CCN(Cc3cc4n(n3)CCCNC4)CC2)c1 ?
NPYLR7 agonist: 3; NPYLR7 agonist max-min: 0

How did Cc1ccc(C)c(N(C(=O)c2ccnc(Cl)c2)C(C)C)c1 do in these assays?
NPYLR7 agonist: 2; NPYLR7 agonist max-min: -1

Results for Cc1ccc2oc(-c3ccc(NC(=O)c4cccc(F)c4)cc3)nc2c1 ?
NPYLR7 agonist: -7; NPYLR7 agonist max-min: -10

How did CC(C)CNC(=O)COc1ccc2c(=O)c(-c3ccccc3)coc2c1 do in these assays?
NPYLR7 agonist: -11; NPYLR7 agonist max-min: -11

What do the screens show for `Cn1ncc2c(NC3Cc4ccccc4C3)nc(-c3cccnc3)nc21`?
NPYLR7 agonist: 2; NPYLR7 agonist max-min: 2

What do the screens show for `COc1ccc(C(=O)N[C@H]2C[C@H]3C(=O)NC[C@@H](CCC(=O)NCc4cccnc4)N3C2)cc1`?
NPYLR7 agonist: -14; NPYLR7 agonist max-min: -17

What do the screens show for `CNC(=S)Nc1cccc([N+](=O)[O-])c1`?
NPYLR7 agonist: 3; NPYLR7 agonist max-min: 3

How did CC(CC(=O)O)n1c(COc2ccccc2)n[nH]c1=S (configuration not stated) do in these assays?
NPYLR7 agonist: 3; NPYLR7 agonist max-min: 4

How did COCCNC(=O)c1cc2n(n1)CCN(Cc1cccc(OC)c1)C2=O do in these assays?
NPYLR7 agonist: 11; NPYLR7 agonist max-min: 10

Results for OCCCNCC(O)Cn1c2ccccc2c2ccccc21 (configuration not stated) ?
NPYLR7 agonist: -2; NPYLR7 agonist max-min: -5

What do the screens show for `Cc1ccc2c(c1)CCCN2Cc1nnsc1Cl`?
NPYLR7 agonist: -12; NPYLR7 agonist max-min: -11

What do the screens show for `Cc1ncc(C(=O)N2CCC(N3CCCC(C(=O)NC4CC4)C3)CC2)cn1` (configuration not stated)?
NPYLR7 agonist: 11; NPYLR7 agonist max-min: 5

Results for Cc1nn(-c2ccc(F)cc2)c(C)c1C(=O)N1CCN2CCNC(=O)C2C1 (configuration not stated) ?
NPYLR7 agonist: 5; NPYLR7 agonist max-min: 5

Screens (PubChem BioAssay)

This is a subset, so the mix of outcomes need not match the whole.
